Screens (PubChem BioAssay)
gsp antag = antagonists of gsp mutant (McCune-Albright syndrome) | gsp-mutant cells, cAMP HTRF, 30 min; control for the full effect not named in the record | Potency, µM (top dose mostly 76.9 µM), inactives show at the top dose activity change, negative = inhibition, actives largely listed as inhibitors | hit rate 0.4% among 340,000 | AID 624288; active = falling curve of any shape with a large fitted effect; inconclusive = falling curve, mostly with a smaller effect; inactive = flat or rising curve; cell line not stated here;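 further: intracellular cAMP measured with PDE inhibitor Ro 20-1724 present during compound exposure; potency means the concentration at half of the fitted maximal effect; on the % scale 0 is the no-effect control and ±100 the full control effect; nearly all actives have a fitted effect of over 65% in size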
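HTRF cAMP measurement after 30 min RT detection following 30 min, 37C compound treatment alongside […] (added as 300 uM solution) in G418-selected cells seeded at 2000/well and grown 16–24 h.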
TRPML1 inh = human mucolipin-1 channel inhibition; hit rate 0.02% among 390,000; TRPML1-inducible cells, Ca2+ dye fluorescence, FDSS; active compounds read low; inhibition of EC80 agonist-evoked calcium signal; activity change, negative = inhibition, % (no concentration beside the values); AID 624415; in the data active means activity change below about -50%; inconclusive means about -30% to -50%; inactive means above about -30%;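 further: stimulus is agonist 54-4 at its EC80 concentration; on the % scale 0 is the no-effect control and ±100 the full control effect; compound concentration not given in the record; the text of the record puts the active cut at -80%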
Target sequence (Q9GZU1 whole entry, looked up): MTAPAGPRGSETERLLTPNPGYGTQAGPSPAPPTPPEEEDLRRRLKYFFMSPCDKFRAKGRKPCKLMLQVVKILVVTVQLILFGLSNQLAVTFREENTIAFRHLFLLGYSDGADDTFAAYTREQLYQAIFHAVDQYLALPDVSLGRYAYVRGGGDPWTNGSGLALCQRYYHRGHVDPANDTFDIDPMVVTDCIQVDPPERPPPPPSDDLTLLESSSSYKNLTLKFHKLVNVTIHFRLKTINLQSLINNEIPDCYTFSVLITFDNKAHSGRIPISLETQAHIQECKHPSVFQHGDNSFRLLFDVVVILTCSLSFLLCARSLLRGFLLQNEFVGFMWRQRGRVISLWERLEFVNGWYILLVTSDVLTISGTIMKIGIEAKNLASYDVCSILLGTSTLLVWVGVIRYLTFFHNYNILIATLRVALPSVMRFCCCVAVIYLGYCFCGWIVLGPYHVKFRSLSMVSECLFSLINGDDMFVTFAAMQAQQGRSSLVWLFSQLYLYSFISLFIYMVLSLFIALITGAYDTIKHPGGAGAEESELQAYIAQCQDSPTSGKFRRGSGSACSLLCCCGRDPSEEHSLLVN
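Calcium fluorescence in TRPML1-DL cells induced overnight with Tet: a 110 s read after compound pin addition, then a 110 s antagonist read after challenge with 54-4 at 4 uM final (EC80).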
gsp agonist = agonists of gsp mutant (McCune-Albright syndrome). gsp mutant cells, cAMP HTRF, 30 min; control for the full effect not named in the record. Potency, µM (titrated, usually from 76.9 µM), for the others: top-dose activation (cAMP increase), hits mostly activators. hit rate 0.13% among 340,000. AID 624287; active = well fitted activation curve with a large enough effect; inconclusive = small, poorly fitted or top-dose-only effect, or another doubt; inactive = no such curve, though single readings can be large or run the other way; cell line not stated here;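 further: phosphodiesterase inhibitor Ro 20-1724 added with compounds to block cAMP breakdown; potency means the concentration at half of the fitted maximal effect; nearly all actives have a fitted effect of over 60% in size; about a fifth of the inactives were tested at one dose only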
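Cells stably selected in G418 were plated at 2000/well, grown 16-24 hr, then given compounds in DMSO with the PDE inhibitor […] (300 uM solution added) for 30 min at 37C; cAMP was read by HTRF.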
Menin-MLL FL inh = displaces fluorescein MLL peptide from human menin; FP activity change, % at 61.4 µM; 290,000 tested, under 10 active; Fluorescence polarization, fluorescein-MLL peptide displacement from menin; AID 1766; inconclusive = falling polarisation curve, or a change in total fluorescence; inactive = total fluorescence flat and polarisation flat or rising; no compound was filed as active; the % refers to the polarisation; negative = inhibition;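 further: % of control where 0% means no effect; inhibitors lower the polarisation; unlabelled MLL peptide was the positive control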
TRPML1 agonist = human mucolipin-1 channel agonism. Q9GZU1. hit rate 0.12% among 410,000. activation, % (test concentration not listed). TRPML1-expressing cells, Ca2+ dye fluorescence, FDSS; host cell line not named in the record; reference of the full effect not given here. AID 624414; in the data active = activation above about 50%; inconclusive = about 30% to 50%; inactive = below about 30%; further: 0% is about no effect; the text of the record puts the active cut at 80%
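Cells: TRPML1-DL, 1X Tet inducer, ~16 h at 37 degrees C/5% CO2. Dye: ABD Ca8 no-wash + quencher, 45-90 min RT. Read: 10 s baseline, compound add, 110 s agonist phase; 54-4 EC80 (4uM final), 110 s antagonist phase.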
ClpP mod = qHTS Assay for Activators of ClpP; ATP-dependent Clp protease proteolytic subunit (Bacillus subtilis (strain 168)), P80244; purified B. subtilis ClpP, FRET peptide cleavage, 20 min; Potency, µM (top dose mostly 57.5 µM), without a hit: top-dose activity change, negative = active; hit rate 1.9% among 340,000; AID 651965, 2013; active = well fitted falling curve with a large enough effect; inconclusive = small, poorly fitted or top-dose-only effect; inactive = no such curve, though single readings can be large or run the other way; further: potency means the concentration at half of the fitted maximal effect; the source files actives as falling curves though it sought activators and does not explain the sign; nearly all actives have a fitted effect of over 65% in size; many hits overshoot -100%
Target sequence (P80244 whole entry, looked up): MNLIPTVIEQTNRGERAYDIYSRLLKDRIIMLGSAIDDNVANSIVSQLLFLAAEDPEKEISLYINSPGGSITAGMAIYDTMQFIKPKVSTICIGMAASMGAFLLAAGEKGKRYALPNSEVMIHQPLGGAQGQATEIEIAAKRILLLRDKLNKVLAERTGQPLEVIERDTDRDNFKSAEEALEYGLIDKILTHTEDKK
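ClpP 10 microg/mL final, pH 8 Tris/KCl buffer with BSA, glycerol, Tween-20; compound pinned in; FRET-FV substrate; RT 20 min; Ex320/Em430; ΔFRET vs ADEP 5.8 microM, DMSO, no enzyme.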
Active calls of the source: *; ? = inconclusive; nt = not tested or not shown; [ ] = dose if it differs, or a comment.

The line under a structure holds: TRPML1 inh | ClpP mod | TRPML1 agonist | gsp agonist | gsp antag | Menin-MLL FL inh
> COC(=O)c1ccccc1SC(CC(=O)c1ccccc1)c1ccc(F)cc1 (configuration not stated)
  18 | -3.3% | 5.3 | 6%[15.4 µM] | -25% | 1.8
> CC1C(=O)N(Cc2cn(Cc3ccco3)nn2)CCS(=O)(=O)N1Cc1ccc(-c2ccc(F)nc2)cc1 (configuration not stated)
  28 | -3.4% | -0.2 | -76%[inhibitor] | nt | nt
> COc1ccc(N2CCN(C(=O)c3cn(C)c(=O)c4c3c3ccccc3n4C)CC2)cc1
  7 | -23% | 7.8 | -18% | -20% | -8.7
> COc1ccc(CN(C)CC(=O)NC(=O)Nc2ccccc2F)cc1
  5 | 2.1% | -0.5 | -4% | -1% | nt
> Cn1c(-c2sc3cc(C(F)(F)F)cnc3c2-c2ccccn2)n[nH]c1=S
  -8 | nt | -0.5 | -1% | -17% | 0.0
> CCOc1ccc(-n2c(SCC(=O)Nc3ccc4c(c3)OCCO4)nc3c([nH]c4ccccc43)c2=O)cc1
  -10 | -29% | 1.0 | nt | nt | nt
> Cc1ccc(CNC(=O)C2CCC(=O)N2CCc2ccccc2)cc1 (configuration not stated)
  -19 | -2.1% | 0.4 | 27% | 3% | 4.1
> COc1ccc(Cl)cc1NC(=O)C1CSC(c2ccncc2)=N1 (configuration not stated)
  36 | -4.2% | 1.4 | -68%[inhibitor] | -15% | 12
> CC1=NN(Cc2ccccc2)C(=O)C1
  -12 | -0.2% | 0.0 | -32%[inhibitor] | -9% | 5.1
> O=Cc1ccc(C(=O)O)cc1
  -6 | -0.5% | -0.4 | nt | -1% | nt
> Cc1c(Cl)cccc1NC(=S)N1CCN(C(=O)c2ccco2)CC1
  6 | -1.6% | -0.2 | -62%[inhibitor] | 2% | nt
> CSc1ncccc1C(=O)OCC(=O)NC1CC1
  15 | -0.8% | 0.1 | 7%[15.4 µM] | 1% | nt
> Cc1cccc(NC(=O)CSc2nc(C)cc(C)c2C(=O)Nc2ccc(Cl)cc2)c1
  -14 | 7.7% | 3.4 | nt | nt | nt
> Cc1ccc(S(=O)(=O)N2CCN(Cc3nc4ccc(C)cc4o3)CC2)c(C)c1
  27 | -0.7% | 1.3 | nt | nt | nt
> Cc1ccc(-c2nnc(NC(=O)C3=COCCO3)o2)c(C)c1
  9 | nt | 0.2 | 0%[15.4 µM] | 1% | nt
> O=C(OCC(=O)N1CCc2ccccc21)c1cncc(Br)c1
  -20 | nt | 1.1 | 22%[15.4 µM] | 1% | 3.7
> O=C(COC(=O)C1COc2ccccc2O1)Nc1cccc(F)c1 (configuration not stated)
  3 | 1.1% | 0.7 | -10% | -4% | nt
> CCOc1ccc(N(CC(=O)NN=C2CCN(C)CC2)S(C)(=O)=O)cc1
  3 | -2.3% | -0.5 | -6% | 4% | 2.2
> CC1(C)CC(NC(=O)c2cccc(S(=O)(=O)Nc3cccc(Cl)c3)c2)CC(C)(C)N1
  2 | -1.6% | 0.9 | ? | 10% | nt
> Cc1ccnc(NCc2ccc(Br)cc2)c1
  1 | -12% | 0.7 | -19% | 2% | 8.2
> CC(=O)c1ccc(OCCCC(=O)NCCc2ccc(C(F)(F)F)cc2)cc1
  -3 | nt | -0.7 | ? | 4% | 1.9
> COC(=O)CCC(=O)N(CCN(Cc1ccccc1)C(=O)CCC(=O)OC)Cc1ccccc1
  16 | nt | -0.3 | 12% | -13% | nt
> CCOC(=O)CC1c2nc3ccccc3cc2CN1C(=O)OCC (configuration not stated)
  2 | -2.8% | -0.3 | -9% | nt | nt
> COC(=O)c1ccc(OC(=O)C2CC(=O)N(c3cccc(C)c3)C2)cc1 (configuration not stated)
  18 | 1.0% | 2.7 | -35% | -13% | 1.4
> O=C(NCCc1csc(-c2cccnc2)n1)c1cccc(C(F)(F)F)c1
  -4 | -25% | 2.0 | nt | nt | nt
> CO/N=C/C(=N\Nc1ccc(OC)cc1)C(=O)c1ccc(F)cc1
  11 | nt | 0.5 | -8%[15.4 µM] | -11% | -5.9
> Cc1nc2ccc(NC(=O)c3ccc(S(=O)(=O)N(C)C)cc3)cc2s1
  -9 | -0.6% | -0.1 | -57%[inhibitor] | -11% | 2.0
> O=C(O)c1cn(Cc2ccccc2Cl)c2ccc(S(=O)(=O)N3CCOCC3)cc2c1=O
  -7 | -1.0% | 2.9 | 8% | -10% | 2.4
> O=C(Cn1cc(C(F)(F)F)cc(Cl)c1=O)Nc1cccc(Cl)c1
  -5 | -9.9% | -0.3 | 8% | 15% | 4.1
> CCOc1ccccc1N1CCN(C(=O)c2cccc(S(=O)(=O)N3CCOCC3)c2)CC1
  9 | 0.6% | 0.0 | -33%[inhibitor] | -4% | nt
> COc1cccc(CN2CCN(Cc3ccon3)CC2CCO)c1 (configuration not stated)
  0 | nt | -0.1 | -17% | 12% | -0.2
> COC(=O)c1cc(C(=O)OC)n(Cc2ccc(C)cc2)c1C
  -6 | -1.8% | 1.6 | 21% | -8% | 6.5
> COc1ccc(C)cc1NC(c1nnc(-c2ccccc2)o1)c1ccc(F)cc1Cl (configuration not stated)
  -1 | -6.8% | 1.6 | nt | nt | nt
> CC1CN(c2oc(-c3ccco3)nc2S(=O)(=O)c2ccccc2)CC(C)O1 (configuration not stated)
  -2 | -1.3% | 0.1 | -30% | 6% | 7.0
> COc1ccc(NC(=O)CSc2n[nH]c(CNc3cccc(C)c3)n2)cc1
  -2 | -8.6% | -0.2 | 2%[15.4 µM] | 2% | -4.1
> Cn1c(=O)c2c(ncn2CC(=O)N2CCN(c3ccccc3F)CC2)n(C)c1=O
  -9 | 0.1% | 0.1 | ? | 2% | 0.3
> COc1ccc(C(=O)O/N=C(\N)c2ccccn2)cc1[N+](=O)[O-]
  -5 | 0.7% | 0.5 | 11%[15.4 µM] | 5% | 2.1
> CN(CCOC(=O)c1cccc(Br)c1)C(C)(C)C
  -4 | 1.1% | -0.3 | -8% | -2% | 1.6
> CN(C(=O)COC(=O)c1cccs1)c1c(N)n(Cc2ccccc2)c(=O)[nH]c1=O
  8 | 1.7% | -0.8 | -55%[inhibitor] | 13% | nt
> O=C(NCC(c1cccnc1)N1CCN(Cc2ccccc2)CC1)C(=O)Nc1cccc(F)c1 (configuration not stated)
  6 | -11% | 0.6 | nt | nt | nt
> Cc1ccc(S(=O)(=O)NC2c3cccc4cccc(c34)C2Sc2nc(C)cc(C)n2)cc1 (configuration not stated)
  16 | -0.8% | 1.2 | 0% | -3% | 1.2
> CC1CC(=O)N(CC(=O)Nc2ccc(F)cc2F)c2ccccc2S1 (configuration not stated)
  -8 | 0.4% | 4.2 | nt | nt | nt
> Cc1ccc(NC(=O)CCC(=O)O)cc1F
  30 | -1.4% | 0.2 | 8% | 5% | -0.8
> COc1ccc(-n2cc(C(=O)Nc3cc(F)ccc3F)c3ccccc3c2=O)cc1
  26 | ? | 4.3 | nt | nt | nt
> CC(Cl)C(=O)NNc1cccc(Cl)n1 (configuration not stated)
  9 | -0.5% | 1.0 | 0% | 7% | 2.0

In a second layout: 3 of the compounds above.
structure	TRPML1 inh	ClpP mod	TRPML1 agonist	gsp agonist	gsp antag	Menin-MLL FL inh
COc1ccc(NC(=O)CSc2n[nH]c(CNc3cccc(C)c3)n2)cc1	-2	-8.6%	-0.2	2%[15.4 µM]	2%	-4.1
Cn1c(=O)c2c(ncn2CC(=O)N2CCN(c3ccccc3F)CC2)n(C)c1=O	-9	0.1%	0.1	?	2%	0.3
COc1ccc(C(=O)O/N=C(\N)c2ccccn2)cc1[N+](=O)[O-]	-5	0.7%	0.5	11%[15.4 µM]	5%	2.1

The listing continues:
The line under a structure holds: TRPML1 inh | ClpP mod | TRPML1 agonist | gsp agonist | gsp antag | Menin-MLL FL inh
> Cc1ccc(NC(=O)/C=C/C(=O)O)c([N+](=O)[O-])c1
  27 | 1.7% | 0.3 | -2%[15.4 µM] | 15% | 1.5
> Cc1n[nH]c(C)c1Cc1ccc(C(=O)O)cc1
  5 | 0.0% | 0.8 | -18% | 6% | 14
> CC(=O)Nc1ccc(S(=O)(=O)NC2CC(=O)N(c3ccc(C)c(C)c3)C2)cc1 (configuration not stated)
  -6 | 0.6% | 0.2 | -34%[inhibitor] | 11% | nt
> CC(NCC(=O)Nc1ccccc1C(=O)NC1CC1)c1ccc(F)cc1F (configuration not stated)
  -1 | -5.3% | 0.7 | 3% | 7% | nt
> NC(=O)c1ccc(NC(=O)CSc2nc3ccccc3c(=O)n2CCCN2CCOCC2)cc1
  0 | -1.8% | 0.6 | ? | -24% | nt
> O=C(Nc1cc2nn(-c3ccccc3)nc2cc1Cl)c1ccco1
  -19 | -17% | -0.2 | 22% | -7% | 1.8
> c1cncc(-c2cnc3ccccc3c2)c1
  19 | -2.3% | -0.6 | -66%[inhibitor] | 2% | nt
> NC1=NC(=O)C(CC(=O)c2ccc(Cl)cc2)S1 (configuration not stated)
  22 | 0.7% | -0.7 | 26% | 6% | 0.7
> C[C@@H](CO)NC(=O)[C@H]1O[C@@H](n2cnc3c(N)ncnc32)[C@H](O)[C@@H]1O
  1 | -28% | -0.2 | nt | nt | nt
> Cc1ccc(Cn2nc(C)c(NC(=O)C3CC3)c2C)cc1
  5 | 0.8% | -0.5 | -18% | -4% | -1.0
> CCOC(=O)C1CCCN(C(=S)Nc2cccc(Cl)c2C)C1 (configuration not stated)
  -1 | -2.3% | -0.1 | -2%[15.4 µM] | 1% | -3.4
> CN(C)CCOC(=O)c1cccc(Br)c1
  1 | 4.4% | 0.4 | -8% | -3% | 3.0
> CCCOc1ccc(N2CC(C(=O)NC(C)C)CC2=O)cc1 (configuration not stated)
  -9 | 0.7% | 0.0 | 8% | -9% | 1.1
> O=[N+]([O-])c1ccc(N2CCOCC2)c([N+](=O)[O-])c1
  16 | nt | -0.5 | -3% | 9% | nt
> Cc1nc2nc(SCc3ccccc3)[nH]n2c(=O)c1CCC(C)C
  2 | -1.8% | 0.0 | -3% | 1% | 0.7
> O=C(CSc1nc2c([nH]c3ccccc32)c(=O)n1-c1ccc(Cl)cc1)c1ccccc1
  10 | -12% | 1.3 | nt | nt | nt
> S=c1[nH]nc(Nc2cccc3ccccc23)s1
  11 | nt | 1.2 | -1%[15.4 µM] | -13% | 0.5
> O=C(C(c1ccccc1)C(O)(c1ccccc1)c1ccccc1)N1CCOCC1 (configuration not stated)
  -23 | nt | 1.6 | 14% | -11% | nt
> O=C1CN(C(=S)NC(=O)c2ccccc2[N+](=O)[O-])CCN1
  -19 | -2.5% | 0.6 | -16% | 9% | -2.8
> NC(=O)c1cc2ccccc2o/c1=N/NC(=O)c1cccc(F)c1
  3 | nt | 1.2 | 24% | -7% | nt
> O=C(OC(C(=O)NC1CCCC1)c1ccccn1)c1cccs1 (configuration not stated)
  -6 | -2.4% | 3.9 | 4% | 9% | 0.3
